GALR2 ag: agonists of human galanin receptor 2 (GALR2). GALR2-expressing cells, agonist activation read-out. activation, %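 (tested at 5 µM)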. hit rate 0.48% among 140,000;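 active = above mean plus 3 SD of all compounds, about 5% in these data, not always enough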;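 note: 0% = vehicle buffer wells and 100% = reference agonist at full effect; tested in CHO reporter cells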
Target sequence (O43603 whole entry, looked up): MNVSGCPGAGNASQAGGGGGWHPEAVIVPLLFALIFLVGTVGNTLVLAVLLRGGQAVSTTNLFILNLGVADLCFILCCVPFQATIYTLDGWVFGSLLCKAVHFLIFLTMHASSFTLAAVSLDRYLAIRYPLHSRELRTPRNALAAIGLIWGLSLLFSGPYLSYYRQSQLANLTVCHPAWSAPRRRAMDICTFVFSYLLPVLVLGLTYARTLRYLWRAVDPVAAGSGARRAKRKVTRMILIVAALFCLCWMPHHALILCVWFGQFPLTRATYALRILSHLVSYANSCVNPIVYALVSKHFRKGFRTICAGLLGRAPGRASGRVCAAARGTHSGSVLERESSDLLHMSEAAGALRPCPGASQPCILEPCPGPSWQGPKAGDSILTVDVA
INS promoter inh: TRM-6 insulin promoter activity inhibition | hit rate 0.9% among 130,000 | inhibition, % at 2 µM | TRM-6 cells (human fetal islet line), insulin promoter-eGFP reporter, imaging; reporter expression induced with tamoxifen;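 active = inhibition above the mean plus 3 SD, with well images judged a real hit on visual review, cut at about 60% in these data, passing the limit was not always enough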
RGS16-Gao: modulates binding between human RGS16 and Galphao; O15492+P09471; bead-based flow cytometry RGS16-Galphao binding, fluorescence; actives lie on both sides; binding response (% of control), % at 10 µM; hit rate 0.38% among 220,000; AID 1441;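 active = below 25% or above 175%, edge rows of some plates excepted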;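 note: Galphao activated by GDP with aluminum fluoride before binding; 100% = wells without compound and 0% = beads without RGS; some results beyond the cut were filed as inactive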
Target sequence (O15492 whole entry, looked up): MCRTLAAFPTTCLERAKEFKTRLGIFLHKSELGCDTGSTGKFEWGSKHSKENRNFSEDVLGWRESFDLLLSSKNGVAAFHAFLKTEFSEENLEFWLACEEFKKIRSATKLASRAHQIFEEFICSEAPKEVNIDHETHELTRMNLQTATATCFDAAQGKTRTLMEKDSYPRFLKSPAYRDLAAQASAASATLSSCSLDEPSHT
Target sequence (P09471 whole entry, looked up): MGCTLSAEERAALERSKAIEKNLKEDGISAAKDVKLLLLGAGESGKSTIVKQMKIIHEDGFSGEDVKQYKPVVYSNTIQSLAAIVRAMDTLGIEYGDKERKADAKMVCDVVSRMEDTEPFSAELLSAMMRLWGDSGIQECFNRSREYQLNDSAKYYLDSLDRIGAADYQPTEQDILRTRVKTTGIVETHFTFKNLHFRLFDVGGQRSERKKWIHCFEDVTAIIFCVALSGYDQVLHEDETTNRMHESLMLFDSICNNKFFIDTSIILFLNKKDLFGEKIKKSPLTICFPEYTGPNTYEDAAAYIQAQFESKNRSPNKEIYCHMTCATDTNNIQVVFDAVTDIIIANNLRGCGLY
PKD1 inh: PKD1 (human) kinase inhibition. PKD1 kinase fluorescence polarization assay. AID 797. hit rate 0.056% among 200,000. Q15139. inhibition, %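 (about 10 µM by stock and volumes)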;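 active = inhibition of 50% or more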;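 note: controls were vehicle for no effect and a reference inhibitor for full effect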
HSV replic up: HSV replication enhancement | hit rate 0.005% among 220,000 | HSV replication augmentation in cells, fold increase | AID 1956 | maximum fold increase;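 active = peak rise of 1.5-fold or more in the series; tested in PC3 cells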;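 note: first round at 10 µM; read as green reporter fluorescence; hits show the peak of a series up to 25 µM; 1 = signal of infected wells without compound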
INS promoter inh cell count: recorded beside INS promoter inh, whose call it bears; normalized cell count, %; measured here: cell count, toxicity; reference of the scale not given here;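 cells exposed to compound for 48 h; stained nuclei by imaging scaled within each plate; lower means fewer cells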
HSV replic up primary fold: second read-out of HSV replic up, no call of its own (marks repeat the call); fold increase; compound at 10 µM; measured here: primary screen fold increase 10 uM; tested in PC3 cells;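 GFP signal in the first replicate; 1 = infected wells without compound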
Starred values were filed as active, the others as inactive; i = inactive; / = not tested or not shown.

item	SMILES	GALR2 ag	INS promoter inh	INS promoter inh cell count	RGS16-Gao
1	CN(C)c1ccc(CN(C(=O)/C=C/c2ccccc2Cl)C2CCS(=O)(=O)C2)cc1 (configuration not stated)	/	/	/	81
2	CC1(C)NC(=O)N(CC(=O)OCC(=O)Nc2sccc2C#N)C1=O	/	/	/	99
3	O=C1CC(c2ccccc2)=Nc2ccccc2N1Cc1ccccc1	/	-36	57	52
4	Cn1nnnc1SCC(=O)N1CCc2ccccc21	/	/	/	105
5	CCOc1ccc2nc(SCC3CC3(Cl)Cl)[nH]c2c1 (configuration not stated)	/	/	/	99
6	O=C(Cn1cc(C(=O)C(F)(F)F)c2ccccc21)N1CCOCC1	/	/	/	134
7	CC1Cc2ccccc2N1C(=O)CN1C(=O)NC(C)(c2ccc3c(c2)OCCO3)C1=O (configuration not stated)	0.7	-55	96	101
8	O=C(Nc1ccccc1F)c1ccc(Cn2cc(Cl)cn2)cc1	/	-5	120	103
9	CSc1nnc(SCc2nc3sc(C(=O)O)c(C)c3c(=O)[nH]2)s1	/	/	/	97
10	CN(C)c1cccc(C(=O)OCC(=O)Nc2nccs2)c1	-1.3	37	53	86
11	c1ccc2c(c1)OCC(c1csc3ncnc(N4CCCCC4)c13)O2 (configuration not stated)	-1.9	-44	137	99
12	O=C(O)CCCC(=O)Nc1nc2n(n1)C(c1ccc(F)cc1)CC(c1ccc(Cl)cc1)N2 (configuration not stated)	-1.2	38	114	67
13	C=CCOc1ccc(CNn2cn[nH]c2=S)cc1OCC	-0.8	0	133	98
14	Cc1ccc(C(C(=O)NC2CCCC2)N(C(=O)Cc2cccs2)c2cccc(C)c2C)o1 (configuration not stated)	-1.4	-8	66	106
15	CCN(CC)C(=O)CSc1nc2c(sc(=S)n2CC)c(=O)n1-c1ccccc1	-1.1	-46	106	95

item	PKD1 inh	HSV replic up	HSV replic up primary fold
1	/	i	0.86
2	-5	i	1
3	-3	i	1.1
4	/	i	1
5	/	i	0.85
6	-8	i	1.1
7	-9	i	0.9
8	-5	i	1.1
9	/	i	1.2
10	-1	i	1.1
11	-2	i	0.96
12	5	i	0.98
13	-2	i	0.98
14	-10	i	1.1
15	9	i	1.1

New compounds follow:
item	SMILES	GALR2 ag	INS promoter inh	INS promoter inh cell count	RGS16-Gao
16	O=C(CNS(=O)(=O)c1ccc(Cl)cc1)OCC(=O)N1CCCc2ccccc21	-1.5	/	/	95
17	COc1cc(N2CCOCC2)ccc1C=C(C#N)C#N	/	-11	65	98
18	Cc1ccc(SCCC(=O)OC(C(=O)NC(N)=O)C(C)C)cc1 (configuration not stated)	/	/	/	103
19	Cc1nc(CNS(=O)(=O)c2ccc3ccccc3c2)cs1	0.2	29	149	103
20	COc1ccc(C)cc1NC(=O)c1nc2nc(C)cc(C)n2n1	0.0	-66	162	/
21	Cc1cccc(C(=O)c2c[nH]cc2-c2ccccc2)c1	-0.2	33	133	105
22	COc1ccc(C)cc1NC(=O)C(=O)N1CCCC1	/	/	/	96
23	COc1ccc(CCN2CC(C(=O)NCc3ccc(F)cc3)CC2=O)cc1OC (configuration not stated)	/	/	/	101
24	C/C(=N\NC(=O)Cn1cnc2ccccc21)c1cccs1	/	/	/	99
25	O=C(NCc1ccc(Cl)cc1)C(=O)NCC1OCCN1S(=O)(=O)c1cccs1 (configuration not stated)	-0.1	-48	106	/
26	Cc1noc(C)c1C(=O)OCC(=O)c1c[nH]c2ccccc12	-1.9	/	/	99
27	O=C(CS(=O)(=O)c1c[nH]c2ccccc12)N1CCc2ccccc21	/	/	/	101
28	CNC(=O)CSc1nnnn1-c1ccc2c(c1)OCCO2	-2.1	-9	129	100
29	COc1cccc(CNC(=O)CCN2C(=S)NC(C)(C)CC2C)c1 (configuration not stated)	/	/	/	97
30	O=C(CN1C(=O)COc2ccccc21)c1ccc(Cl)cc1	-1.9	-3	114	95

item	PKD1 inh	HSV replic up	HSV replic up primary fold
16	-6	i	0.97
17	-6	i	1
18	3	i	1.1
19	-7	i	0.88
20	-4	/	/
21	-5	i	1
22	/	i	0.97
23	/	i	0.94
24	-5	i	0.83
25	-8	i	1
26	3	i	0.91
27	4	/	/
28	-4	i	1
29	17	i	0.91
30	-5	i	0.93

Remaining list, next part:
item	SMILES	GALR2 ag	INS promoter inh	INS promoter inh cell count	RGS16-Gao
31	C=C1C(C(=O)Nc2ccccc2)C1C(=O)Nc1ccccc1 (configuration not stated)	/	/	/	112
32	CN(C)C(CN1C(=O)C2CC=CCC2C1=O)c1cn(C)c2ccccc12 (configuration not stated)	-2.8	33	102	100
33	CCOc1cc([N+](=O)[O-])c2nc(N)sc2c1	/	/	/	101
34	O=C(C1CCN(S(=O)(=O)N2CCOCC2)CC1)N1CCOCC1	-0.8	/	/	97
35	COc1cc(OC)cc(C(=O)N2CCC(N3CCN(c4ccccc4)CC3)CC2)c1	-0.9	/	/	102
36	CN1CCCC(OC(=O)CCCCC(=O)OC2CCCN(C)C2)C1 (configuration not stated)	-1.1	-29	147	94
37	COc1cc(OC)c(N(C)S(=O)(=O)c2cccc(C(=O)OCc3c(C)noc3C)c2)cc1Cl	/	-6	86	92
38	COc1cc(CNCCc2ccccc2)ccc1OCC(N)=O	-1.2	13	115	97
39	O=C(O)Cn1nc(-c2ccc(F)cc2)oc1=O	-1.2	0	83	113
40	Cc1nc(Nc2ccccc2)sc1C	/	/	/	98
41	Cc1[nH]n(S(=O)(=O)Cc2ccccc2)c(=O)c1N=Nc1ccccc1Cl	/	45	163	108
42	CCOc1ccc(NS(=O)(=O)c2ccc(NC(=O)C3CCCO3)cc2)cc1 (configuration not stated)	-0.6	14	144	103
43	CC(C)c1ccc(N(C(=O)c2cc3ccccc3oc2=O)C2C=CS(=O)(=O)C2)cc1 (configuration not stated)	0.0	/	/	73
44	COc1cc(OC)c2ccc(=O)oc2c1C(CCN1CCCC1)c1ccc2c(c1)OCO2 (configuration not stated)	/	/	/	100
45	Cc1cccc2cc(CN(Cc3cccnc3)C(=O)c3ccccc3F)c(Cl)nc12	2.8	-23	87	100

item	PKD1 inh	HSV replic up	HSV replic up primary fold
31	/	i	0.98
32	4	i	0.98
33	/	i	0.81
34	-5	i	0.64
35	-1	i	1
36	-3	i	1
37	-8	i	0.78
38	-10	i	1
39	-1	i	1
40	-2	i	0.86
41	-3	i	0.95
42	-12	i	1
43	-6	i	0.93
44	/	i	0.85
45	-2	i	0.82

(listing goes on)
item	SMILES	GALR2 ag	INS promoter inh	INS promoter inh cell count	RGS16-Gao
46	Cc1cccc(NC(=O)CO/N=C/c2ccc3c(c2)OCO3)c1	-1.1	/	/	103
47	CCn1c(SCC(=O)Nc2ccc(NC(=O)c3cccs3)cc2)nnc1-c1cccnc1	-0.4	/	/	99
48	CCCOc1ccc(C2NC(=O)NC2=O)cc1 (configuration not stated)	-0.9	10	76	68
49	O=c1cnnc(N/N=C/c2ccc3c(c2)OCO3)[nH]1	/	/	/	103
50	COc1ccc(NC(=O)COc2ccc(/C=N/n3c(C)nnc3C)cc2OC)cc1	-2.8	9	96	102
51	C/C=C/C(=O)OCC(=O)Nc1cccc(Br)c1	/	/	/	103
52	Cc1cc(/C=C2/SC(=O)N(CC(=O)N3CCOCC3)C2=O)c(C)n1-c1ccccc1F	3.4	-88	107	102
53	COc1ccc(-c2nc3ncnn3cc2C)cc1F	/	/	/	96
54	CCc1ccc(OCC2c3cc(OC)c(OC)cc3CCN2C(=S)NC)cc1 (configuration not stated)	/	58	122	96
55	CCOc1ccc(CC(=O)N2CCN(c3ccc(N4CCOCC4)nn3)CC2)cc1OCC	-1.8	/	/	53
56	COc1cccc(N2CCN(Cc3nc(N)nc(Nc4ccccc4OC)n3)CC2)c1	-0.3	8	118	99
57	CC1(C)CC2CC(C)(CN2C(=O)COC(=O)CNC(=O)c2ccc(Cl)c(Cl)c2)C1 (configuration not stated)	-0.2	/	/	100
58	Cc1ccc(NC(=S)N(CCN(C)C)C(C)c2ccco2)cc1C (configuration not stated)	0.0	-5	99	103
59	Cc1ccc(C2(C(F)(F)F)N=C3Sc4cc(C)ccc4N3C(=O)N2)cc1 (configuration not stated)	-0.5	41	120	96
60	CC(=O)c1c(C)[nH]c(C(=O)COC(=O)CCSc2ccccc2)c1C	-2.4	-23	86	104

item	PKD1 inh	HSV replic up	HSV replic up primary fold
46	2	i	0.99
47	-19	i	0.93
48	-9	i	0.99
49	/	i	1
50	-7	i	0.79
51	-6	i	0.92
52	5	i	1.2
53	3	i	0.87
54	-7	i	0.98
55	-11	/	/
56	2	i	1
57	10	i	1
58	2	i	0.93
59	-6	/	/
60	1	i	1.1

Copied from above: entries 48–51
item	SMILES	GALR2 ag	INS promoter inh	INS promoter inh cell count	RGS16-Gao
48	CCCOc1ccc(C2NC(=O)NC2=O)cc1 (configuration not stated)	-0.9	10	76	68
49	O=c1cnnc(N/N=C/c2ccc3c(c2)OCO3)[nH]1	/	/	/	103
50	COc1ccc(NC(=O)COc2ccc(/C=N/n3c(C)nnc3C)cc2OC)cc1	-2.8	9	96	102
51	C/C=C/C(=O)OCC(=O)Nc1cccc(Br)c1	/	/	/	103

item	PKD1 inh	HSV replic up	HSV replic up primary fold
48	-9	i	0.99
49	/	i	1
50	-7	i	0.79
51	-6	i	0.92

Additional records
item	SMILES	GALR2 ag	INS promoter inh	INS promoter inh cell count	RGS16-Gao
61	COc1cc2c(cc1NC(=O)CN1C(=O)NC3(CCc4ccccc43)C1=O)oc1ccccc12 (configuration not stated)	-0.1	0	161	98
62	COc1cccc(C(=O)Oc2ccc(N3C(=O)CCC3=O)c(C)c2)c1	/	/	/	104
63	CCn1cc(/C=N/NC(=O)c2ccc(C#N)cc2F)c2ccccc21	-2.8	23	58	101
64	CCOC(=O)c1cc2sccc2n1CC(=O)C(C)(C)C	/	-213	102	106
65	CC(=O)Nc1nonc1-c1nc2ccccc2n1Cc1nnc(C)o1	-1.9	-31	112	103
66	O=C(C(=O)N1CCc2ccccc2C1)c1c[nH]c2ccccc12	/	/	/	100
67	CCOc1cnc(-c2c(-c3ccccc3Cl)noc2C)o1	/	-27	92	99
68	CCC(=O)Nc1cc2c(cc1C(=O)CC)OCCO2	0.6	7	129	95
69	CCN(CC)CCCNC(=O)c1nn(-c2ccccc2OC)c(=O)c2ccccc12	-1.0	12	99	99
70	Cc1cccc(Nc2nc3ccccc3s2)c1C	-0.6	-34	76	112
71	COc1ccccc1C(=O)N1CCN(Cc2cn[nH]c2-c2ccc(F)cc2F)CC1	/	/	/	103
72	NS(=O)(=O)c1ccc(CCNC(=O)CCCn2c(=O)[nH]c3ccc(Br)cc3c2=O)cc1	/	-15	79	86
73	Cc1ccc(-c2nnc(SCC(=O)NNC(=O)COc3cccc(C)c3)n2C)cc1	-1.5	8	143	111
74	O=C(C1CCCCC1)N1CCCC(c2nc3c(nnn3Cc3ccccc3)c(=O)[nH]2)C1 (configuration not stated)	3.1	-7	83	99
75	CC1CCCN(c2ncnc3c2cnn3-c2ccc(Cl)cc2)C1 (configuration not stated)	/	/	/	90

item	PKD1 inh	HSV replic up	HSV replic up primary fold
61	-4	i	0.91
62	2	i	0.95
63	-5	i	0.75
64	7	i	0.99
65	-4	i	0.91
66	5	i	0.92
67	-10	i	1
68	14	i	0.98
69	0	i	0.99
70	10	i	0.99
71	-2	i	1
72	-1	i	0.98
73	-5	i	0.85
74	2	i	1.1
75	/	i	0.77

Continuation.
item	SMILES	GALR2 ag	INS promoter inh	INS promoter inh cell count	RGS16-Gao
76	CC1(C)Cc2c(C#N)c(SCC(=O)c3ccccc3)nc(N3CCCC3)c2CO1	5.2	-464	73	/
77	COCCCNC(=O)Cn1nc(-c2ccc(C)cc2)ccc1=O	-1.0	41	86	97
78	O=C(CSc1nnc(-c2ccco2)n1Cc1ccccc1)c1ccc(F)cc1	-1.3	-4	117	93
79	Cc1cccc(C(=O)NNC(=O)c2ccccc2)c1	-2.0	14	55	52
80	Cc1ccc(S(=O)(=O)NN/C(=N/S(=O)(=O)c2ccccc2)c2ccccc2)cc1	/	/	/	100
81	CCN(CC)S(=O)(=O)c1cc(NS(=O)(=O)c2cc(Cl)ccc2Cl)ccc1C	-2.3	33	125	108
82	O=C(O)c1cccc(-n2cnnn2)c1	-1.1	21	122	105

item	PKD1 inh	HSV replic up	HSV replic up primary fold
76	-2	/	/
77	-9	i	0.8
78	0	i	1
79	-8	i	1
80	-5	i	1
81	-11	i	0.99
82	-2	i	1
